From PubChem BioAssay
GIV-Gai inh = inhibitors of GIV peptide binding to Galpha-i3, primary screen, biochemical, fluorescence polarization, FITC-GIV GBA peptide, rat Galphai3; Guanine nucleotide-binding protein G(i) subunit alpha-3 (Rattus norvegicus), P08753; 90 min; hits give low values; scaled: aluminum fluoride 0%, vehicle 100%; percent of control (FP), % (concentration not given with the values); 210,000 tested, 0.42% active;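 active = replicate mean at 85% of control or lower, very high polarization wells dropped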;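 also: wells of about 15 µL received 100 nL stock; the first replicate is given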
Target sequence (P08753 whole entry, looked up): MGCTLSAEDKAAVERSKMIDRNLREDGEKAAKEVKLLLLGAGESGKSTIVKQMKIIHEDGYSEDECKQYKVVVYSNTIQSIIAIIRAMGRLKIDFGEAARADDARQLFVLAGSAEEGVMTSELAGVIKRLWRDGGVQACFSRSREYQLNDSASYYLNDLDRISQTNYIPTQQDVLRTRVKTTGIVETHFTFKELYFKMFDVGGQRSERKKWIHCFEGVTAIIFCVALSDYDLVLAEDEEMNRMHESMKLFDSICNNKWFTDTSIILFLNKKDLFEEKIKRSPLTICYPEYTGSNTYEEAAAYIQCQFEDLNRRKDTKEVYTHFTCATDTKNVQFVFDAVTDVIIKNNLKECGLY
Sa growth inh = S. aureus growth inhibition at 42 and 30 °C, primary screen, LtaS inhibitor project, RN4220, two temperatures; OD600, 20 h, 42 °C; hits give low values; relative growth, % (no concentration beside the values); 170,000 tested, 0.53% active; AID 720641, 2013;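 active = growth at 42 °C up to 50% and 20 or more points under that at 30 °C, or under 10% at both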;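 also: 300 nL library stock went into each well; scaled to the means of positive and negative controls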
HCMV NEC inh = inhibitors of HCMV UL50-UL53 interaction, biochemical, HTRF. normalized percent inhibition. AID 1918969, 2023. HCMV UL50-UL53 nuclear egress complex (human cytomegalovirus). inhibition, % (test concentration not listed). 190,000 tested, 0.15% active;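 active = both replicates at 50% or more, plus weaker picks with an unusually low signal ratio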;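 also: stock transfer was 100 nL into about 20 µL; 0% = negative control wells and 100% = wells with untagged competitor protein; inactives centre near -12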
Sa growth inh second temp = also measured in Sa growth inh; calls as there; relative growth, %; measured here: growth at 30 °C;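 optical density after 20 h as mean of two plates; 100% = untreated growth and lower means inhibition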
* marks the source's active call; other numbers are inactive results; . = not tested or not shown; & = joins results of further samples.

Second line of a record – GIV-Gai inh	Sa growth inh	Sa growth inh second temp	HCMV NEC inh
- CCCNC(=O)Cn1c(C(=O)OC)ccc1-c1ccco1
 : 108	105	87	.
- Cc1ccc(NC(=O)C2CCCN(c3cnccn3)C2)c(C)c1 (stereo not drawn)
 : 100	78	91	-9
- COc1ccc(C(NC(=O)C2CC=CCC2C(=O)O)c2ccccc2)cc1 (stereo not drawn)
 : .	95	90	-13
- Cc1ccc2cc(S(N)(=O)=O)ccc2n1
 : 98	112	98	-47
- O=S(=O)(c1cccc(S(=O)(=O)N2CCC(c3nnnn3-c3ccc(F)cc3)CC2)c1)N1CCOCC1
 : 103	.	.	-7
- CCCc1cc(=O)[nH]c2nnc(SCC(=O)Nc3cccc(C)c3)n12
 : 105	101	92	.
- O=C(CSc1nnc(NC(=O)C2CC2)s1)Nc1ccccc1F
 : 102	99	105	6
- Cc1ccc(CNC(=O)CSc2nc3ccsc3c(=O)n2-c2ccc(Br)cc2)cc1
 : 95	98	71	.
- Cn1c(N)c(C(=O)c2ccc(Cl)c(S(=O)(=O)N3CCCCCC3)c2)c(=O)n(C)c1=O
 : .	100	94	-1
- O=C(C1c2ccccc2Oc2ccccc21)N1CCc2ccccc21
 : 97	102	88	.
- CCC(=O)N(Cc1ccc(OC)cc1)C1CC(=O)N(c2ccc(OC)cc2)C1=O (stereo not drawn)
 : 99	99	109	0
- Cc1onc(-c2ccccc2)c1C(=O)N1CCSC1=NCc1ccccc1
 : .	87	93	1
- CC(=O)N1CCCSc2ccc(S(=O)(=O)Nc3cccc(C)n3)cc21
 : 98	.	.	-23
- COc1ccc(N(C)C(=O)NCc2noc3ccc(C)cc23)c(OC)c1
 : 110	101	87	.
- CCOC(=O)c1cc2c(=O)n3ccccc3nc2n(Cc2ccco2)c1=NC(C)=O
 : 96	105	85	.
- O=C(c1nc(-c2ccc(Cl)cc2)n2c1CCCCC2)N1CCN(c2ccc(F)cc2)CC1
 : 102	136	92	.
- CC(C)(C)OC(=O)N1CCC(c2c(C(=O)N3CCN(c4ccccn4)CC3)cnn2-c2ccc(F)cc2)CC1
 : 107	78	91	.
- O=C(CSc1cn(CC(=O)N2CCOCC2)c2ccccc12)N1CCOCC1
 : 101	95	87	.
- N#Cc1ccccc1S(=O)(=O)N1CCN(C(=O)CCc2cccs2)CC1
 : .	102	93	4
- COC(=O)c1ccc(NC(=O)CSc2nc(=O)[nH]c3c2CCCC3)cc1
 : 97	101	89	.
- CCOC(=O)C1=C(C)Nc2ccccc2N=C1NC(=O)C1CCN(S(=O)(=O)c2ccccc2)CC1
 : .	110	99	1
- CN(C)CCNC(=O)c1nc[nH]c1C(=O)NCc1ccccn1
 : 104	.	.	-18
- O=C(Nc1ccc(NC(=O)c2ccc(Br)cc2)c(Cl)c1)c1ccc(Br)cc1
 : 109	112	101	-37
- CCOC(=O)N1CCC(N2C(=O)c3ccccc3C2=O)CC1
 : 105	117	87	-38
- O=C(Nc1cccc(F)c1)c1ccc(-n2nc(OCc3cccc(F)c3)ccc2=O)cc1
 : 108	.	.	4
- COc1ccccc1/C=[N+]1\N=C([O-])C(NC(=O)c2cccc(C)c2)C1c1ccc(Cl)cc1 (stereo not drawn)
 : 104	95	89	.
- CCOc1ccc(CNC(=O)Cn2nc(C)c3nn(-c4ccc(Cl)cc4)c(C)c3c2=O)cc1
 : 106	109	102	.
- Cc1ccc(NC(=S)N2CCn3c4c(c(=O)c5cc(C)ccc53)CCC42)cc1 (stereo not drawn)
 : 97	75	80	.
- CCc1ccc(OCC(=O)NCC(c2ccc(OC)cc2)N2CCOCC2)cc1 (stereo not drawn)
 : 100	100	85	-28
- COc1cc(NC(=O)C(C)SC2=Nc3ccccc3C3=NC(C)C(=O)N23)cc(OC)c1 (stereo not drawn)
 : 105	.	.	-5
- CCCN1CCc2nc(SCC(=O)Nc3ccc(C)c(Cl)c3)[nH]c(=O)c2C1
 : 111	94	81	6
- O=C(Nc1cccnc1)c1nn2c(C(F)(F)F)cc(-c3ccc(F)cc3)nc2c1Cl
 : 98	.	.	-2
- COC(=O)COc1ccc(/C=C2\C(=O)NC(=O)N(c3ccc(C(C)C)cc3)C2=O)cc1OC
 : 105	.	.	-16
- Cc1cc(C)n(C(C)CC(=O)O)n1 (stereo not drawn)
 : 100	85	72	-12
- Cn1ncc2c(Nc3ccccc3)nc(NCCCO)nc21
 : 107	.	.	-6
- CCc1ccc(Oc2nc3c(C)cccn3c(=O)c2/C=C(\C#N)c2nc3ccccc3s2)cc1
 : 101	79	86	-42
- COc1cc2c(cc1OC)C(C)N(C(=O)CSCC(=O)O)CC2 (stereo not drawn)
 : 100	101	86	-13
- C=CCN(C(=O)c1cc2ccccc2o1)C1(C(=O)Nc2ccc(F)cc2)CCN(C(C)=O)CC1
 : .	77	76	-29
- COc1ccc(-c2nn(-c3ccc(F)cc3)c3c2cnc2ccc(F)cc23)cc1OC
 : 104	95	97	-13
- c1cc(CN2CCOCC2)ccc1CN1CCOCC1
 : .	112	88	-9
- CCC(Sc1nc2ccccc2s1)C(=O)Nc1cc(C)on1 (stereo not drawn)
 : 98	60	80	-9
- Cn1cnnc1-c1cccc(NC(=O)C(c2ccccc2)c2ccccc2)c1
 : .	84	80	-16
- COc1ccc(CCNC(=O)CCCn2c(SCC(N)=O)nc3cc4c(cc3c2=O)OCO4)cc1OC
 : 107	112	93	.
- Cc1sc(-c2ccno2)cc1S(=O)(=O)NC1CCCCC1
 : 104	.	.	-28
- Cc1ccc(-c2ccc(CCC(=O)O)n2NC(=O)c2ccco2)cc1
 : 102	105	102	-5
- CCn1c(SC)nnc1C1CCN(C(=O)NC2CCCCC2)CC1
 : 100	109	94	8
- CCOC(=O)C1CCCN(C(=O)COc2ccc(C)c(C)c2)C1 (stereo not drawn)
 : .	104	95	-6
- O=C1C2C3C=CC(C3)C2C(=O)N1c1cccc2ccccc12 (stereo not drawn)
 : 108	100	86	12
- O=C(COC(=O)CCc1ccccc1)Nc1ccc2c(c1)OCCO2
 : .	86	97	-27
- Cn1nc(C(=O)N2CCCc3ccccc32)c2ccccc2c1=O
 : 101	94	79	-24
- Cc1cc(C)cc(N2C(=O)C(C)SC23CCCCC3)c1 (stereo not drawn)
 : .	99	89	-12
- Cc1ccc2cc(C#N)c(N3CCCN(S(=O)(=O)c4ccccc4)CC3)nc2c1
 : 101	101	98	3
- O=C(CN1C(=O)CCCc2ccccc21)NCc1ccc(F)cc1F
 : 108	.	.	-3
- O=C(CNC(=S)N(Cc1ccccc1F)C1CCCCC1)N1CCc2ccccc21
 : 99	108	88	.
- CC1(C)C2CCC1(CS(=O)(=O)NCc1ccncc1)C(=O)C2 (stereo not drawn)
 : 99	86	90	3
- CCOc1ccccc1NC(=O)n1ncc2ccccc21
 : 104	.	.	-38
- Cc1cccc(CNC(=O)c2ccc3c(c2)N(C)C(=O)C2CCCCN32)c1 (stereo not drawn)
 : 106	96	88	.
- CCn1cc(C(=O)Nc2cccc(OC)c2)c2cc(OC)c(OC)cc2c1=O
 : 100	107	81	.
- CC(=O)NC12CC3CC(C1)CC(C(=O)OCC(=O)Nc1ccccc1C(=O)NC1CC1)(C3)C2
 : .	95	90	-6
- COc1ccc2cc3c(N)nn(C(=O)CSc4ccncc4)c3nc2c1
 : 103	97	84	-1

2 of the compounds above, in markdown.
| compound | GIV-Gai inh | Sa growth inh | Sa growth inh second temp | HCMV NEC inh |
| --- | --- | --- | --- | --- |
| CCn1cc(C(=O)Nc2cccc(OC)c2)c2cc(OC)c(OC)cc2c1=O | 100 | 107 | 81 | . |
| Cc1sc(-c2ccno2)cc1S(=O)(=O)NC1CCCCC1 | 104 | . | . | -28 |

The listing continues.
Second line of a record – GIV-Gai inh	Sa growth inh	Sa growth inh second temp	HCMV NEC inh
- C#CCn1c(=NC(=O)c2ccc3c(c2)OCCO3)sc2cc(OC)c(OC)cc21
 : 101	94	83	.
- Cc1cccc(C)c1NC(=O)C(=O)NCC(c1ccc2c(c1)OCO2)N1CCN(C)CC1 (stereo not drawn)
 : 100	114	84	.
- CCCCNC(=O)C1CCN(S(=O)(=O)CCC)CC1
 : 97	102	94	.
- COc1ccc(S(=O)(=O)NCC(c2ccco2)S(=O)(=O)c2cccs2)cc1OC (stereo not drawn)
 : 97	132	87	.
- CCN(CC)S(=O)(=O)c1cccc(C(=O)N/N=C/c2ccc(OC(=O)c3ccco3)c(OC)c2)c1
 : .	96	96	-18
- Cc1ccc(CCNC(=O)c2ccc3c(=O)n(-c4ccccc4)c(=O)[nH]c3c2)cc1
 : 101	91	92	-6
- CC(NC(=O)CN1CSCC1=O)C12CC3CC(CC(C3)C1)C2 (stereo not drawn)
 : .	107	85	-12
- CCC(Sc1nnc2c3ccccc3n(C)c2n1)C(=O)Nc1ccccc1C#N (stereo not drawn)
 : .	94	84	-23
- CC(=O)O/N=C(\N)Cc1ccc(-c2csnn2)cc1
 : 105	97	87	-20
- CCOc1ccc(CNC(=O)c2ccc(CS(=O)Cc3ccc(Cl)cc3)o2)cc1 (stereo not drawn)
 : 105	111	84	.
- COc1ccc(C2C=C(c3ccccc3)Nc3nc(NC(=O)c4ccc(C)cc4)nn32)cc1 (stereo not drawn)
 : 128	96	68	-29
- COc1ccc2c(c1)CCc1c-2n[nH]c1C(=O)Nc1ccc2sc(NC(=O)c3ccccc3)nc2c1
 : 114	.	.	-6
- O=C(O)c1ccc(N2C(=O)c3[nH]nc(-c4ccccc4)c3C2c2cccnc2)cc1 (stereo not drawn)
 : 97	96	98	-11
- COc1ccc(Cn2c(=O)c3cccnc3n(Cc3cccc(OC)c3)c2=O)cc1
 : 103	95	81	-25
- O=S1(=O)c2ccccc2NC(c2ccccc2Cl)N1Cc1cccc(Cl)c1 (stereo not drawn)
 : 100	.	.	-7
- Cc1cccc(C(=O)Nc2cccc(C(=O)OCc3cc(=O)n4c5c(sc4n3)CCCC5)c2)c1
 : 106	102	95	.
- Cc1cc2nc(-c3ccc(OCc4ccccc4)cc3)cc(C(F)(F)F)n2n1
 : 103	77	87	-38
- Cc1ccc(NC(=O)c2c(C)cc(C)nc2SCC(=O)Nc2ccc(Br)cc2)cc1
 : 103&101	107	92	-9&-1
- c1ccc2c(c1)CCCN2Cc1nnc2n1CCCCC2
 : .	94	102	35
- CCN(CC)CC(O)CN1CCn2c3c(c4cc(C)ccc42)CCCC31 (stereo not drawn)
 : 107	111	78	-11

Pulled one by one from above:
Second line of a record – GIV-Gai inh	Sa growth inh	Sa growth inh second temp	HCMV NEC inh
- Cc1ccc2cc(S(N)(=O)=O)ccc2n1
 : 98	112	98	-47
- CCCN1CCc2nc(SCC(=O)Nc3ccc(C)c(Cl)c3)[nH]c(=O)c2C1
 : 111	94	81	6
- CN(C)CCNC(=O)c1nc[nH]c1C(=O)NCc1ccccn1
 : 104	.	.	-18

(continued)
Second line of a record – GIV-Gai inh	Sa growth inh	Sa growth inh second temp	HCMV NEC inh
- Fc1ccc(N2CCN(Cc3nnc(-c4ccccc4Cl)o3)CC2)cc1
 : 102	116	101	7
- Cn1c(=O)c2c(-c3ccc(Cl)cc3)ccnc2n(C)c1=O
 : 106	96	82	-11
- COc1ccc(Cn2ccc3nc(C)c(C(=O)N4CCN(c5cc(C)ccc5C)CC4)cc3c2=O)cc1
 : 102	102	80	.
- c1ccc(NCn2cncn2)nc1
 : 106	108	90	-39
- CC(C)Cc1nn2c(=O)cc(COC(=O)c3ccccc3NC(=O)c3cccs3)nc2s1
 : 102	103	100	.
- O=C(CCSc1nnc2c(n1)[nH]c1ccccc12)N1CCOCC1
 : 112	98	81	-78
- O=C(O)c1nc(N2CCOCC2)ncc1Cl
 : .	97	92	-30
- CC(C)OC(=O)C1C(=O)CC(C)(O)C(C(=O)OC(C)C)C1c1ccccc1 (stereo not drawn)
 : 104	104	85	-25
- N#Cc1ccccc1NC1=CC(=O)CCC1
 : 108	97	105	6
- Cc1ccc2nc(CN(C)Cc3c(F)cccc3Cl)cc(=O)n2c1
 : .	103	94	-60
- Cc1cc(C)nc(Nc2ncc(O)n2-c2ccc(Cl)c(Cl)c2)n1
 : 107	120	82	.
- COc1ccc(-n2nc(C(=O)NCC(=O)NCc3ccccc3OC)c3ccccc3c2=O)cc1
 : 102	97	88	.
- CC(C)c1ccccc1NC(=O)CSc1nnc(COc2ccccc2Cl)o1
 : 108	108	103	8
- Clc1ccc(Cc2ccc(Cl)nn2)cc1
 : 101	.	.	-17
- COc1ccc(-c2[nH]c3ccccc3c2SCCNC(=O)c2cc(OC)c(OC)c(OC)c2)cc1
 : 102	93	74	-2
- CC(=O)Oc1ccc(C(=O)c2ccc(OC(C)=O)cc2)cc1
 : .	86	91	-32
- CCC(=O)Nc1nc2ccc(S(C)(=O)=O)cc2s1
 : .	97	88	-11
- CC(C)C(=O)Nc1cccc(C(=O)Nc2nnc(C(F)(F)F)s2)c1
 : 104	95	85	-25
- COc1cc2c(cc1OC)C(NNC(=O)C(F)(F)C(F)F)=NC(C)(C)C2
 : 110	96	92	2
- Cn1c(=O)c2cc(C(=O)NCC3CCCO3)sc2c2ccc(Cl)cc21 (stereo not drawn)
 : 109	110	89	.
- COc1ccc(C(=O)c2ccc(OC)cc2O)c(O)c1
 : 104	99	98	-13
- Cc1cc(=O)[nH]c2nnc(SCC(=O)NC(C)(C)C)n12
 : 94	97	91	.
- O=C(C1CCCCC1)N1CCC(O)(c2ccc(Cl)cc2)CC1
 : 96	103	93	-12
